HSD17B inhib: blocks hydroxysteroid 17-beta dehydrogenase activity; Q99714; recombinant HSD17B10, NADH fluorescence kinetic; many of its hits are not listed in these tables; Potency, µM (highest dose often 57.1 µM), without a hit: top-dose activity change, negative = inhibition, most hits filed as inhibitors; 75,000 tested, 7.6% active; active = well fitted inhibition curve with a large enough effect; inconclusive = small, poorly fitted or top-dose-only effect; inactive = no such curve, though single readings can be large or run the other way;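 note: the protocol describes HADH2 (HSD17B10) and not the HSD17B4 of the title; nearly all actives have a fitted effect of over 70% in size; most hits overshoot -100% by far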
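Enzyme plus compound, 15 min room temperature; substrate mix added (NAD+ 1 mM, beta-hydroxybutyryl-CoA 90 uM final); plates read kinetically for NADH fluorescence. HADH2 was His-tagged, E. coli-derived, 20 nM.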
Numbers without * were called inactive; ? = inconclusive; [ ] = dose if it differs, or a comment. % is set by controls: 0 for no effect and ±100 for the full control effect; potency is the fitted concentration of half-maximal effect. This is a subset; the hit share may differ from the screen's.

SMILES	HSD17B inhib
CC(=O)Nc1ccc(S(=O)(=O)N2CCN(C(=O)Cc3ccccc3)CC2)cc1	-18%
Cc1ccc(-n2ncc3c2ncn2c(C)nnc32)cc1C	1%
CC1=C(C(=O)N(C)Cc2ccccc2)C2(CCC(C)CC2)OC1=O (stereo unspecified)	3%
CCC(=O)NCCc1cc2ccc(C)cc2[nH]c1=O	?
Cc1ccc(S(=O)(=O)Cc2ccc(C(=O)NCc3ccc4c(c3)OCO4)o2)cc1	-11%
O=S(=O)(NCc1cccnc1)c1ccc(Cl)c(Cl)c1Cl	-3%
Cc1cc2ncn(S(=O)(=O)c3ccc(S(=O)(=O)N4CCOCC4)cc3)c2cc1C	10%
O=C(Nc1ccc2c(c1)OCO2)OCc1ccccc1	-10%
O=C(c1ccccc1CCc1ccccc1)N1CCN(c2ccccn2)CC1	?
CCOc1cc(C(=O)NCc2ccncc2)cc(OCC)c1OCC	4%
C#C[C@]1(OC(C)=O)CCC2C3CCC4=CC(=O)CCC4C3CC[C@]21C (stereo partly specified)	3%
C=C(C)COc1ccc(-c2[nH]ncc2Oc2ccccc2OCC)c(O)c1	-12%
CCOC(=O)N1CCC(NC(=O)CCC(=O)N2CC(C)Oc3ccccc32)CC1 (stereo unspecified)	8%
O=C(CCCCCn1c(=O)[nH]c2ccccc2c1=O)N1CCN(Cc2ccc3c(c2)OCO3)CC1	?
CN(C)CCCN1c2ccccc2Sc2ccc3ccccc3c21	2%[11.4 µM]
CC(C[N+](C)(C)C)OC(N)=O (stereo unspecified)	4%
O=C(Nc1cccc(-c2cnc3ccccc3n2)c1)c1ccco1	-8%
COCc1nnc(NS(=O)(=O)c2ccccc2)s1	-4%
COc1ccccc1C(=O)Nn1c(C2CCC2)nc2ccccc2c1=O	-9%
COC(=O)C1CC1C(NC(=O)[C@H]1CCCCN1)c1ccccc1 (stereo partly specified)	-8%
O=C(Oc1ccccc1)N1CCC2(CC1)CN(c1ccccc1)C2	2%
CCOC(=O)N1CCN(CCC(=O)Nc2ccc(C)cc2)CC1	24%
CCC1Oc2ccccc2N(CC(=O)NCCCN2CCC(C)CC2)C1=O (stereo unspecified)	4%
O=C(CN(Cc1ccccc1)C(=O)c1ccc2c(c1)OCCO2)NCc1ccc2c(c1)OCO2	0%
FC(F)Oc1cccc2cccnc12	-12%

By substructure: the entries above containing a halogen (2)
SMILES	HSD17B inhib
O=S(=O)(NCc1cccnc1)c1ccc(Cl)c(Cl)c1Cl	-3%
FC(F)Oc1cccc2cccnc12	-12%

The main list resumes; the five compounds before the break are reprinted first.
SMILES	HSD17B inhib
O=C(Oc1ccccc1)N1CCC2(CC1)CN(c1ccccc1)C2	2%
CCOC(=O)N1CCN(CCC(=O)Nc2ccc(C)cc2)CC1	24%
CCC1Oc2ccccc2N(CC(=O)NCCCN2CCC(C)CC2)C1=O (stereo unspecified)	4%
O=C(CN(Cc1ccccc1)C(=O)c1ccc2c(c1)OCCO2)NCc1ccc2c(c1)OCO2	0%
FC(F)Oc1cccc2cccnc12	-12%
O=C(CSc1nnc(CCc2nc3ccccc3[nH]2)n1-c1ccccc1)NCc1ccco1	-3%
C#CCOC(=O)[C@H](N)CC(N)=O	6%[11.4 µM]
NC(=O)CC12CC3CC(C1)CC(CC(N)=O)(C3)C2	2%
CCOC(=O)Cc1csc(NC(=O)CSc2nnc(-c3ccc(F)cc3)o2)n1	-1%
CC(C)CCNC(=O)NC(=O)CSc1nnc(-c2ccccc2F)n1N	-27%
O=C(Cn1c(=O)n(CC2CCCO2)c(=O)c2ccccc21)N1CCN(c2ccccc2)CC1 (stereo unspecified)	7%
S=C1SCN(Cc2ccccn2)CN1Cc1ccco1	?
O=C1CC(c2ccccc2)CN1C(=O)c1ccccc1 (stereo unspecified)	0%
COc1ccc(-c2nc3scc(-c4ccccc4)n3n2)cc1	8%
Cc1c(C(=O)Nc2ccc(N3CCOCC3)cc2)oc2ccccc12	-9%
CCN(CC)C(=O)CN1CCN(c2ncccn2)CC1	3%
COc1ccc(N(C)S(=O)(=O)c2cccc(C(=O)NC3=NCCS3)c2)cc1	-1%
COc1cc(NC(=O)c2ccco2)c(OC)cc1NC(=O)CCC(=O)Nc1cccc(C)c1C	-4%
Cc1cc(C(=O)Nc2nnc(C(F)(F)F)s2)no1	9%
Cc1nc(SCC(=O)NCc2ccccc2)c2c(=O)n(C)c(=O)n(C)c2n1	-3%
CCCn1c(SCC(=O)Nc2nnc(CC)s2)nc2c1c(=O)n(C)c(=O)n2C	9%
CCC(=O)N1CCc2cc(S(=O)(=O)NCCC(=O)N3CCc4ccccc4C3)ccc21	-2%
CN(C)C(=O)N1CCC(C(=O)NCc2ccccc2Cl)CC1	10%
CC1CC(C)CN(C(=O)CSCC(=O)Nc2nc(-c3cccs3)cs2)C1 (stereo unspecified)	-17%
Cc1csc(SCC(=O)NC(=O)NCc2ccccc2)n1	8%
O=C(CN1C2=NCCN2c2ccccc21)c1ccc(Br)cc1	-5%
CN(C)c1ccc(C(=C2C=CC(=[N+](C)C)C=C2)c2c(O)c(S(=O)(=O)O)cc3cc(S(=O)(=O)O)ccc23)cc1	-20%[11.4 µM]
COc1ccc(C2CC(c3cccc(OC)c3OC)n3nnnc3N2)cc1 (stereo unspecified)	-4%
COC(=O)C1(S(=O)(=O)c2ccc(C)cc2)CCOCC1	8%
CCc1nnc(NC(=O)CC(=O)Nc2ccccc2C(=O)O)s1	-15%

Later entries.
SMILES	HSD17B inhib
Cc1cc(C(=O)NC(C)c2ccncc2)cs1 (stereo unspecified)	14%
O=C(CSc1nnc(CNc2ccc(F)cc2)o1)N1CCCc2ccccc21	4%
CCOC(=O)c1c(-c2ccccc2)oc2ccc(O)c(CN3CCOCC3)c12	-19%
O=[n+]1c2c(n([O-])c3c1CCC3)CCCC2	-4%
CCCn1c(=O)c2[nH]c(-c3ccc(OCC(=O)Nc4ccc(C#N)cc4)cc3)nc2n(CCC)c1=O	-4%
CC(C(=O)NC1CCCC1)N(C(=O)c1snc(C(N)=O)c1N)c1ccc2c(c1)OCCO2 (stereo unspecified)	12%
Cc1ccc(S(=O)(=O)Nc2nc3ccc(S(=O)(=O)N4CCCC4)cc3s2)cc1	?
Cn1cccc1Cc1nnc(SCC(=O)Nc2ccc3c(c2)OCCO3)n1-c1ccc(F)cc1	-12%
O=C(CN1C(=O)CSc2ccccc21)N1CCc2ccccc21	-7%
O=c1c2c3c(sc2nc2n1CCCCC2)CCCCC3	-3%
Cn1c(=O)n2n(c1=O)[C@H]1[C@H](O)[C@H]3O[C@H]3C(=O)[C@H]1CC2	-8%[11.4 µM]
O=c1[nH]c(NCCO)nc2c1C1(CCCCC1)Cc1ccccc1-2	32µM*
COc1ccc(-c2noc(CCCC(=O)O)n2)cc1	3%
COc1ccc(NC(=O)C2CCCCN2CC(=O)OCc2ccccc2)cc1OC (stereo unspecified)	1%
Cc1ccc2cc(CN(Cc3cccs3)Cc3nnnn3CC3CCCO3)c(=O)[nH]c2c1C (stereo unspecified)	-5%
Cc1cccc(OCCCCc2c(C)n[nH]c2C)c1	?
CCOC(=O)c1[nH]c2ccc(OC)cc2c1N=CN(C)C	?
CCN(CC)CCCn1c(=S)[nH]c2cc(Cl)ccc2c1=O	-5%
NC(=O)CSc1nnc(-c2ccc(S(=O)(=O)N3CCOCC3)cc2)n1Cc1ccccc1	?
CC(C)(C)n1nc2c(c1NC(=O)c1ccc(S(=O)(=O)N3CCCC3)cc1)CS(=O)C2 (stereo unspecified)	8%
Cc1[nH]c(C)c(CN(C)C)c1CN(C)C	4%[11.4 µM]
O/C(=C\Sc1nnc(Cc2ccccc2)o1)c1ccc(Br)cc1	-1%
Cc1ccc(CN2C(=O)CCC2C(=O)NCCCN2CCCCC2C)cc1 (stereo unspecified)	15%
CCCCN(C(=O)c1ccc(Cl)cc1)C1CC2CCC(C1)N2C (stereo unspecified)	-4%
O=C(CN1CCN(C(=O)N2CCCCC2)CC1)Nc1ccc(F)cc1	16%

(further entries)
SMILES	HSD17B inhib
NS(=O)(=O)c1ccc(-n2nncc2C23CC4CC(CC(C4)C2)C3)cc1	4%
CCC/C(O)=C1\C(=O)CCCC1=NC(C)C(=O)O (stereo unspecified)	0%
CC(=O)N1CCC2(CCN(Cc3nccs3)CC2)CC1	5%
C(=C\c1ccccc1)/CN1CCN(c2ncnc3c2oc2ccccc23)CC1	?
CCNC(=O)[C@@H]1CCCN1C(=O)[C@H](CCCN=C(N)N)NC(=O)[C@H](CC(C)C)NC(=O)[C@@H](CC(C)C)NC(=O)[C@H](Cc1ccc(O)cc1)NC(=O)[C@H](CO)NC(=O)[C@H](Cc1c[nH]c2ccccc12)NC(=O)[C@H](Cc1cnc[nH]1)NC(=O)[C@@H]1CCC(=O)N1	3%
c1ccc(CNc2ccnc(-c3ccoc3)n2)cc1	-6%
O=c1[nH]c2ccc(S(=O)(=O)N3CCCCC3)cc2[nH]1	1%
O=S(=O)(c1ccc2c(c1)OCCO2)N1CCC(c2nc3ccccc3s2)CC1	9%
CN(C)c1ccc(NC(=O)c2ccc(COc3cccc(Cl)c3)o2)cc1	0%
O=C(NC1CCCC1)C(c1ccc(N2CCOCC2)cc1)N(Cc1ccco1)C(=O)c1ccco1 (stereo unspecified)	3%
CCCCCCCCCc1ccc(OCCOCCOCCOCCOCCOCCOCCOCCOCCO)cc1	-1%
CC1Cc2nc(SCC(=O)Nc3ccc(F)cc3F)n(C)c(=O)c2S1 (stereo unspecified)	3%
O=C(O)c1nn(-c2ccc(Cl)cc2)c2c1C(=O)c1ccccc1C2=O	-3%[11.4 µM]
c1ccc(-n2cnnc2SCc2nc3ccccc3s2)cc1	4%
COc1ccc(N=C2C(=O)Nc3c(C)cccc32)cc1	7%
CC(C)(C)NC(=O)COC(=O)c1snc(C(=O)NC2CCCCC2)c1N	25µM*
CCN1CCN(C(c2ccccc2OC)c2nnnn2C2CCCCC2)CC1 (stereo unspecified)	3%
O=C(CCn1c(=O)[nH]c2ccsc2c1=O)N1CCc2ccccc2C1	-3%
O=C(Cn1nc(-c2cccc(Cl)c2)ccc1=O)Nc1cccnc1	-2%
O=C(CN(c1ccc2c(c1)OCCO2)S(=O)(=O)c1ccccc1)NCC1CCCO1 (stereo unspecified)	2%
COC(=O)c1ccc(-c2n[nH]c(=O)c3ccccc23)cc1	1%
CCOC(=O)C1=C(CN2CCC(C)CC2)NC(=O)NC1c1ccc(Cl)cc1 (stereo unspecified)	-7%
CC1=C(Sc2nc3ccccc3[nH]2)C(=O)NC(C)(C)C1	6%
Nc1cccc(-c2nc3ccccc3[nH]2)c1	32µM*
COc1cc(Br)cc2cc(C(=O)N3CCCCC3C)c(=O)oc12 (stereo unspecified)	-10%

Pulled by structure from the entries so far, five records:
SMILES	HSD17B inhib
COC(=O)c1ccc(-c2n[nH]c(=O)c3ccccc23)cc1	1%
Nc1cccc(-c2nc3ccccc3[nH]2)c1	32µM*
CCNC(=O)[C@@H]1CCCN1C(=O)[C@H](CCCN=C(N)N)NC(=O)[C@H](CC(C)C)NC(=O)[C@@H](CC(C)C)NC(=O)[C@H](Cc1ccc(O)cc1)NC(=O)[C@H](CO)NC(=O)[C@H](Cc1c[nH]c2ccccc12)NC(=O)[C@H](Cc1cnc[nH]1)NC(=O)[C@@H]1CCC(=O)N1	3%
c1ccc(CNc2ccnc(-c3ccoc3)n2)cc1	-6%
CC(C)(C)NC(=O)COC(=O)c1snc(C(=O)NC2CCCCC2)c1N	25µM*

(list continues)
SMILES	HSD17B inhib
COC(=O)N1[C@H](C)C=C[C@]1(Cc1ccccc1)C(=O)NCCCNc1ncc(C(F)(F)F)cc1Cl	-19%
COC(=O)c1ccc(Cn2cnc3c(cnn3-c3ccc(C)c(C)c3)c2=O)o1	?
NC(N)=NCCCCN=C(N)N	7%
CCc1n[nH]c2c1C(=O)CC(C)(C)C2	-29%
Brc1ccc2ncnc(NCc3ccco3)c2c1	3%
COC(=O)c1ccc(NC(=O)COc2ccc(S(=O)(=O)NC(C)C)cc2)cc1	3%
N[C@H](Cc1cc(I)c(Oc2cc(I)c(O)c(I)c2)c(I)c1)C(=O)O	?
O=S(=O)(c1ccc(S(=O)(=O)N2CCN(C3CCCCC3)CC2)cc1)N1CCCCCC1	0%
COC(=O)C1=C(C)NC(=O)NC1/C=C/c1ccccc1 (stereo unspecified)	7%
CC(=O)c1cccc(NC(=O)N2CCN(S(C)(=O)=O)CC2)c1	1%
C=C(C)c1cccc(C(C)(C)NC(=O)NCCCn2ccnc2)c1	8%
CCCc1cc(=O)n2[nH]c(-c3ccccc3)cc2n1	32µM*
CC(=O)Nc1cc(OC(=O)c2ccco2)cc(OC(=O)c2ccco2)c1	1%
CCc1ccc(NC(=O)C2CCN(S(C)(=O)=O)CC2)cc1	8%
O=C(NCC(=O)N(c1cccnc1)C(C(=O)NC1CCCC1)c1ccco1)c1cccs1 (stereo unspecified)	3%
Cc1cc(N2CCN(c3ccccc3)CC2)n2nnnc2n1	1%
CCCCCCN(C(=O)CCCCCN1C(=O)NC(c2ccc(C3CCCCC3)cc2)C(C(=O)OCc2ccccc2)=C1C)C(C(=O)NCCCC)c1ccc(OCC(=O)OC)c(C(=O)OC)c1 (stereo unspecified)	-18%
CCN1C(=O)N(C)C(N(O)C(=O)NC)C1(C)C (stereo unspecified)	1%
O=C(C1CCCN(S(=O)(=O)c2cccs2)C1)N1CCN(C2CCCCC2)CC1 (stereo unspecified)	-6%
N#C/C(C(=O)N1CCOCC1)=C1\Nc2ccccc2S1	-16%
COc1ccc(CCNC(=O)c2noc3c2CCCC3)cc1OC	0%
O=C(NCc1ccco1)C1CCC(CNS(=O)(=O)c2cccc3cccnc23)CC1 (stereo unspecified)	-4%
COC(=O)CCC(=O)Nc1ccc(NC(C)=O)cc1	2%
COc1ccccc1-c1nc(NCc2ccccc2)c2ccccc2n1	?
CC(=O)N1CCc2cc(C(=O)CN3CCN(C(=O)c4ccco4)CC3)ccc21	-4%
COCCCNc1oc(-c2ccccc2F)nc1C#N	20µM*

Assay outcomes: PubChem, National Center for Advancing Translational Sciences (NCATS)
